GLA inh pH 4.5: blocks human alpha-galactosidase A at pH 4.5. P06280. purified enzyme, 4-MU-alpha-Gal fluorescence, pH 4.5. activity change, negative = inhibition, % at 105 µM. 230,000 tested, under 10 active. AID 1467; inconclusive = small, poorly fitted or top-dose-only inhibition, or a rising curve; inactive = flat fitted curve, though single readings scatter; no compound was filed as active;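 also: 0% = full activity with enzyme and -100% = basal without enzyme; dose as in the result columns while the protocol names 77 µM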
Rango-impB inh: prevents formation of the Rango-importin beta complex; Rango CFP/YFP FRET sensor + importin beta, 45 min; Potency, µM (titrated, usually from 92.2 µM), for inactives: top-dose inhibition of complex formation; 0.031% of 340,000 active; AID 540263; active = rising FRET ratio curve, often small or poorly fitted; inconclusive = mostly compound fluorescence or quenching in the first reads; inactive = flat curves in all reads;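 also: potency is read from the fitted curve at half-maximal effect; 0% = DMSO wells and 100% = buffer wells lacking importin beta; nearly all actives have a fitted effect of over 15% in size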
Target sequence (Q14974 whole entry, looked up): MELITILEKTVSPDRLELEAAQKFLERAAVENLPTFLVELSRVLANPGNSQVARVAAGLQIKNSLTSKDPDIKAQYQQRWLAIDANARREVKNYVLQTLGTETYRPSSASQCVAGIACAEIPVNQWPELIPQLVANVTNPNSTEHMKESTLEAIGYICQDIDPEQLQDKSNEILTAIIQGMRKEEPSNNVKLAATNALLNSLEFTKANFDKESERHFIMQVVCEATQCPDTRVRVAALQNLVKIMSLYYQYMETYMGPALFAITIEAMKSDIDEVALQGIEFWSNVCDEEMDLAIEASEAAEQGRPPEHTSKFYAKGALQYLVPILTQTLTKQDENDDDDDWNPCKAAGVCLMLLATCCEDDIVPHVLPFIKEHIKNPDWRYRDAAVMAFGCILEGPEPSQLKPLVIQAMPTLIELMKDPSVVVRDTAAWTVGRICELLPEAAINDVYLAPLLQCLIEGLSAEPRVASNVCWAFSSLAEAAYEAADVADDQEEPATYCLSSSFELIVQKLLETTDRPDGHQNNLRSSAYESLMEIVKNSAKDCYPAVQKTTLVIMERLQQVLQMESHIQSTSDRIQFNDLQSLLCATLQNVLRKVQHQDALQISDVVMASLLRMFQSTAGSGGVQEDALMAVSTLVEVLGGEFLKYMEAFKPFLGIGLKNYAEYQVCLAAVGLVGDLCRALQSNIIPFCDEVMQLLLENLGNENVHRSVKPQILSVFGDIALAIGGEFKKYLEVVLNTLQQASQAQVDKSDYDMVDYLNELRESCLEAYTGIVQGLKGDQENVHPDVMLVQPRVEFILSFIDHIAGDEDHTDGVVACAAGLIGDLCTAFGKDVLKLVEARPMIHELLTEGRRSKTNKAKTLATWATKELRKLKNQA
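FRET biosensor Rango (snurportin 1 IBB between N-terminal EYFP and C-terminal Cerulean), 50 nM in PBS/1 mM DTT/0.02% Tween-20/0.1% BSA, preincubated 5 min RT with compound; 0.125 microM importin beta added, 45 min RT, CFP/YFP FRET ratio read.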
miR-21 reporter: raises the signal of a miR-21 reporter; HeLa miR-21 FLuc reporter, luciferase, 48 h; Potency, µM (top dose mostly 38.3 µM), without a hit: at the top dose reporter change, positive = more light; 340,000 tested, under 10 active; active = well fitted rising curve with a large enough effect; inconclusive = small, poorly fitted or top-dose-only effect; inactive = no such curve, though single readings can be large or run the other way;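 also: % of control where 0% means no effect; miR-21 action dims this reporter so a rising signal means less miR-21 action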
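Compounds were titrated across several concentrations (up to approximately 40 uM) and incubated 48 hours with HeLa miR-21-FLuc reporter cells (miR-21 target sequence downstream of FLuc, endogenous miR-21). Readout was firefly luciferase luminescence after lytic detection reagent.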
Rango dissoc inh: prevents RanGTP from dissociating the Rango-importin beta complex; O95149+P62826; Biochemical FRET Rango-importin beta, RanGTP-induced dissociation; Potency, µM (titrated, usually from 46.1 µM), for inactives: at the highest dose activity change, negative = inhibition; 0.071% of 340,000 active; AID 540253; active means falling FRET ratio curve, often poorly fitted, with flat reads before Ran was added; inconclusive means other falling curves, or compound fluorescence or quenching; inactive means flat or rising ratio curve;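 also: potency is read from the fitted curve at half-maximal effect; % of control where 0% means no effect; nearly all actives have a fitted effect of over 45% in size; -100% = wells without RanGTP and RCC1; the record marks most hits as doubtful in a second field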
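Rango (0.1 uM)–importin beta (0.25 uM) complex; RanGTP-RCC1 trigger; 45 min RT; CFP/YFP FRET read.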
An asterisk follows results filed as active; ? = inconclusive; nt = not tested or not shown; & = joins results of further samples. The list is partial, so the mix of outcomes need not match the whole.

SMILES	GLA inh pH 4.5	Rango-impB inh	miR-21 reporter	Rango dissoc inh
Cc1nn(Cc2cccc(C(=O)Nc3ccn(Cc4c(F)c(F)cc(F)c4F)n3)c2)c(C)c1[N+](=O)[O-]	-28.6	?	28.5%	5.2%
CCOc1ccccc1NC(=O)C1CCCN(c2c(CC)c(C)nc3ncnn23)C1 (stereo not drawn)	nt	0.2%	-0.1%	-0.7%
Cc1cccc(OCCNC(=S)NC(=O)c2cncc(Br)c2)c1	nt	7.0%	0.6%	?
CCSc1nc2cc(OC)c(OC)cc2c(=O)n1CC	-11.5	-3.6%	0.3%	0.1%
CCOc1ccc(S(=O)(=O)N2CCC(C(=O)Nc3cc(S(C)(=O)=O)ccc3Cl)CC2)cc1	nt	-1.6%	nt	15.8%
CCc1ccc(C(=O)COC(=O)C2=NN(c3ccccc3)C(=O)CC2)cc1	nt	-2.3%	nt	0.0%
Cc1cccc(-n2c(=O)c(C#N)cc3c(=O)n4ccccc4nc32)c1	?	?	-2.7%	?
Cc1ccc2c(C)c(C(=O)N3CCN(c4ccncc4)CC3)oc2c1C	nt	-2.2%	nt	6.3%
Cc1c[n+](CC(=O)c2ccccc2)c(C)cn1	nt	-1.2%	-5.0%	-7.1%
CCC(C)C(=O)Nc1nc(C)c(-c2csc(Nc3ccccc3OC)n2)s1 (stereo not drawn)	-9.0	?	17.2%	-12.6%
CC(=O)c1ccc(N2CCN(c3ccnc4cc(Cl)ccc34)CC2)cc1	nt	-0.3%	5.9%	14.9%
CCn1c(-c2ccccc2SC)n[nH]c1=S	2.6	0.2%	-1.1%	19.6%
O=S(=O)(Cc1ccc(Cl)cc1)Oc1ccc(Cl)cc1	nt	2.4%	nt	24.4%
CC(C)c1ccc(S(=O)(=O)N2CCN(C(=S)NCc3ccco3)CC2)cc1	4.2	-4.7%	-3.9%	-19.9%
CCc1c(C)c2c(C)[nH]nc2oc1=O	6.6	-5.1%	-11.2%	-15.8%
C=C(C)C(=O)Nc1cccc(C2=NOC3(C2)C[C@H](C(N)=O)N(C(=O)c2ccccc2C(=O)c2ccccc2)C3)c1 (stereo partly drawn)	-7.9	-3.2%	12.7%	4.1%
CC#CC(=O)N1CCC(C(=O)Nc2ccc(Oc3ccccc3)nc2)CC1	nt	-1.4%	-21.1%	2.1%
COC(=O)c1ccc(-n2c(C)nc(=O)c(-c3ccccc3)c2C)cc1	2.1	-0.3%	-0.9%	-12.7%
COc1ccc(CCNC(=O)CCCCn2c(=O)[nH]c3ccccc3c2=O)cc1OC	-7.5	6.7%	-6.9%	-10.1%
COc1ccc(NC(=O)C2CCC(CNc3c(N4CCCCC4)c(=O)c3=O)CC2)c(OC)c1 (stereo not drawn)	1.9	1.2%	3.5%	1.3%
Nc1c2c(nc3ccccc13)CCCC2=O	21.5	4.2%	-0.9%	14.3%
COc1ccc(CN(C)C(=O)COC(=O)c2cnc(Cl)c(Cl)c2)cc1	nt	0.4%	nt	2.5%
CCCN1CCN(CC(=O)Nc2cc(OCC)ccc2OCC)CC1	nt	-0.6%	-2.9%	6.6%
Cn1c(Cl)c(/C=N/OC(=O)C2CC2)c2ccccc21	5.7	-2.9%	0.8%	1.4%
COc1cc(C2Nc3ccc4ccccc4c3C3=C2C(=O)CC(C)(C)C3)ccc1OCC(=O)O (stereo not drawn)	nt	?	-2.2%	-19.0%
The list continues:
SMILES	GLA inh pH 4.5	Rango-impB inh	miR-21 reporter	Rango dissoc inh
CCOc1ccc(NC(=O)c2ccc(NCC(=O)N3CCCCCC3)cc2)cc1	-3.2	0.7%	-0.3%	-10.1%
COCCCN(CCC#N)C(=O)c1c(-c2c(Cl)cccc2Cl)noc1C	-6.6	3.7%	-0.1%	-12.1%
CC(=O)N(CCc1ccccc1C)Cc1cc2cc(C)ccc2[nH]c1=O	nt	1.4%	-2.3%	11.2%
O=C(Nc1nc2ccccc2s1)c1ccccc1[N+](=O)[O-]	nt	1.1%	-36.9%	0.3%
NC(=O)CCC1NC(=S)N(Cc2ccccc2)C1=O (stereo not drawn)	11.9	-3.7%	0.4%	-13.2%
CC/C(=N\NC(=O)CSCc1ccc(Cl)cc1)c1ccc2c(c1)OCCO2	-16.5	3.9%	-13.2%	-3.6%
CCOc1cc(/C=N/NC(=O)c2ccc(N(C)S(=O)(=O)c3ccccc3)cc2)ccc1OC	nt	-3.5%	1.7%	3.9%
OC(C#CCCN1CCCCC1)(c1ccccc1)c1ccccc1	-27.0	-2.7%	-14.8%	-3.0%
COc1ccc(CN(C)C(=O)c2cc(-c3ccc(C)cc3C)nc3ccccc23)c(OC)c1OC	nt	-0.2%	17.0%	-8.7%
CCC(=O)N1CCc2cc(Br)cc(S(=O)(=O)N3CCC(C(=O)NC(C)(C)C)CC3)c21	nt	1.0%	-0.6%&-3.2%	-1.2%
c1ccc(-c2cc(-c3ccncc3)nc3ccc4ccccc4c23)cc1	-8.1	4.5%	-5.8%	17.0%
COc1cc(C(=S)N2CCC(Cc3ccccc3)CC2)ccc1OCC(N)=O	nt	-7.9%	-3.7%	3.7%
COC(=O)c1ccc(N2CCC(C)CC2)c(N)c1	0.8	-3.7%	-62.0%	-23.1%
Cc1c2cn[nH]c(=O)c2c(C)n1-c1ccccc1	nt	-0.3%	-53.1%	?
COc1ccc(S(=O)(=O)Nc2ccc3c(c2)CC(=O)N([C@H](C)CO)C[C@H](C)[C@H](CN(C)C(=O)Nc2ccc4c(c2)OCO4)O3)cc1	nt	-0.2%	nt	-5.2%
CSCC[C@H](NC(=O)C1CCC(CNC(=O)[C@@H]2CCCN2C(=O)OC(C)(C)C)CC1)C(=O)O (stereo partly drawn)	nt	-3.1%	0.0%	-17.2%
Cc1cccc2cc(CN(Cc3cccs3)Cc3nnnn3Cc3ccccc3)c(=O)[nH]c12	-11.1	3.2%	15.0%	-0.4%
Cc1ccc(Cl)cc1N1CCN(C(=O)Cn2ccc3ccccc3c2=O)CC1	2.9	0.8%	13.9%	-0.5%
O=S(=O)(NC(=S)c1ccccc1)c1ccccc1	nt	-0.4%	nt	2.2%
O=S(=O)(NCC(c1cccnc1)N1CCOCC1)c1ccccc1 (stereo not drawn)	2.4	-0.5%	1.1%	-7.7%
CC(C)(C)c1cc(=O)n(-c2ccccc2)[nH]1	3.3	46.1µM*	?	11.0%
COc1ccc(N(CC(=O)Nc2cccc3ccccc23)S(C)(=O)=O)cc1	nt	2.5%	-17.0%	-1.4%
CN1C2CCC1/C(=C/c1cccn1C)C(=O)/C2=C\c1cccn1C	3.0	?	17.5%	?
O=C(NCc1ccco1)[C@@H]1CSC2c3ccccc3C(=O)N21 (stereo partly drawn)	8.1	-2.3%	1.6%	0.5%
COc1cccc(C(=O)N(C)C(C)c2nc3ccccc3s2)c1 (stereo not drawn)	nt	-1.0%	-0.1%	-2.6%

Rango-impB inh, what is marked active above.
SMILES	GLA inh pH 4.5	Rango-impB inh	miR-21 reporter	Rango dissoc inh
CC(C)(C)c1cc(=O)n(-c2ccccc2)[nH]1	3.3	46.1µM*	?	11.0%

The results go on.
SMILES	GLA inh pH 4.5	Rango-impB inh	miR-21 reporter	Rango dissoc inh
COc1cc(C(=O)OCC(=O)N2c3ccccc3NC(=O)C2(C)C)ccc1OCC(C)C	nt	-2.9%	nt	-3.5%
O=C(CN1C(=O)C2C3C=CC(C3)C2C1=O)Nc1ccc(S(=O)(=O)Nc2nccs2)cc1 (stereo not drawn)	-1.1	?	-0.2%	?
Cc1ccc(NC(=O)CN(C)Cc2ccc(Cl)cc2)cc1	-8.7	-4.3%	-8.1%	32.7%
COc1ccccc1C(=O)N/C(=C\c1ccccc1)C(=O)NC(Cc1ccccc1)C(=O)O (stereo not drawn)	nt	-1.4%	-3.1%	-10.6%
CCOc1ncccc1C(=O)OCC(=O)Nc1cccc(S(N)(=O)=O)c1	-22.5	-1.1%	-1.6%	-3.1%
Cc1sc2ncnc(OCC(=O)c3ccc(S(=O)(=O)N4CCCC4)cc3)c2c1C	-14.0	-1.3%	2.9%	-6.7%
CC(=O)c1ccc(N2CCN(C(=O)c3ccc4c(Cl)c5c(nc4c3)CCCC5)CC2)cc1	-12.4	nt	-2.4%	nt
O=C(COC(=O)CSc1ccc2ccccc2c1Br)NC1CC1	-7.0	?	-0.9%	-3.6%
COc1ccc2cc3cc(C(=O)NCC4CCCO4)oc3nc2c1 (stereo not drawn)	?	-1.3%	-16.3%	-2.4%
Cc1nn(C)c(C)c1S(=O)(=O)NCc1cccs1	0.1	-1.6%	-2.8%	1.4%
CCOc1cc(N2CCOCC2)c(OCC)cc1NC(=O)c1ccccc1C	2.9	3.8%	-3.0%	-3.6%
CCOC(=O)c1c(C)[nH]c(C(=O)COC(=O)CCC2CCCC2)c1C	-10.0	3.0%	-3.6%	-8.2%
CC(NS(=O)(=O)c1cccc(Cl)c1)C(=O)N(C)C1CCN(C)CC1 (stereo not drawn)	-3.9	1.3%	-0.3%	-7.5%
COc1ccc(S(=O)(=O)N2CCN(Cc3cccc(Cl)c3)CC2)cc1	-5.3	1.3%	-8.9%	-18.7%
COc1ccc(CNC(=O)C(=O)NCC2CCCN2S(=O)(=O)c2cccs2)cc1 (stereo not drawn)	nt	0.6%	nt	-5.6%
Cc1cc(C)n(-c2nc3c(c(=O)[nH]c(=O)n3C)n2CC(O)COc2ccccc2C)n1 (stereo not drawn)	1.1	-2.3%	0.0%	12.9%
CCOC(=O)c1cccc(C2=CC(=O)C[C@H](c3ccc(Cl)cc3)C2)c1	nt	-0.8%	nt	-1.5%
Cc1ccc(S(=O)(=O)N2CCC(=O)N(CCOCc3ccccc3C)CC2)cc1	3.6	-0.4%	-5.8%	1.3%
CCN(CC(=O)Nc1c(F)cccc1F)C(=O)c1cc(C)nc2ccccc12	nt	?	nt	0.1%
O=C1c2oc3ccc(F)cc3c(=O)c2C(c2ccc(F)cc2)N1CCCN1CCOCC1 (stereo not drawn)	nt	?	nt	-13.3%
COc1ccccc1C1(CC(=O)N2CCOCC2)CCOC(C(C)C)C1 (stereo not drawn)	2.5	0.8%	1.4%	29.9%
NCCOc1cnn(-c2ccccc2Cl)c(=O)c1Cl	3.8	0.0%	-10.1%	12.9%
Brc1cccc(Cn2c(-c3cncs3)nc3ccccc32)c1	-7.8	2.3%	-0.4%	?
COc1ccc(C2CC(c3ccccc3O)=NN2c2ccccc2)cc1 (stereo not drawn)	nt	-4.9%	nt	7.8%
COc1c(N2CCN(C(=S)NCc3ccccc3)C(C)C2)c(F)cc2c(=O)c(C(=O)O)cn(C3CC3)c12 (stereo not drawn)	2.2	-0.2%	?	-3.3%
Continued.
SMILES	GLA inh pH 4.5	Rango-impB inh	miR-21 reporter	Rango dissoc inh
O=C(CCCN=C1NS(=O)(=O)c2ccccc21)OCc1cc([N+](=O)[O-])cc2c1OCOC2	2.8	3.2%	0.1%	13.5%
CC(C)c1c(C(=O)N/N=C/c2ccco2)nnn1-c1nonc1N	nt	1.9%	-6.6%	-2.5%
CC/C(=N\Nc1ccnc2cc(Cl)ccc12)c1ccc(O)cc1	nt	?	-4.4%	?
COc1ccccc1N(CC(=O)NC(C)(C)C)C(=O)Cn1nnc(-c2ccc(C)o2)n1	1.0	0.6%	0.3%	-6.8%
CC1CN(c2ccc(S(=O)(=O)N3CCOCC3)cn2)CC(C)O1 (stereo not drawn)	9.7	1.5%	-2.8%	-21.1%
Cc1c(C(=O)NCCN2CCOCC2)oc2ccccc12	-1.9	0.2%	-20.6%	16.6%
O=[N+]([O-])c1ccc(Sc2cccc3cccnc23)cc1	-3.3	?	-51.3%	4.1%
CCOc1ccc2[nH]c(=O)c(CN(CCc3ccccc3)C(=O)N3CCOCC3)cc2c1	-20.8	0.4%	2.3%	-0.4%
COc1ccc(S(=O)(=O)N2CCN=C2SCc2cccc(F)c2)cc1	nt	-2.6%	-10.3%	0.3%
O=C(/C=C/c1ccccc1Cl)N(c1ccccn1)C1CCCCC1	-9.9	0.3%	12.5%	0.2%
O=C(CNS(=O)(=O)c1ccc(Br)cc1)NC1CCCC1	nt	0.1%	-0.1%	10.6%
CCc1ccc(NC(=O)CCN2C(=O)c3cccnc3C2=O)cc1	5.3	0.1%	-4.5%	3.7%
CCS(=O)(=O)N1Cc2ccccc2CC1C(=O)N(C)CC(=O)Nc1ccc(F)c(F)c1F (stereo not drawn)	nt	-3.2%	nt	-6.5%
